DT40 TDP1 no CPT – qHTS for Inhibitors of human tyrosyl-DNA phosphodiesterase 1 (TDP1): qHTS in cells in absence of CPT | hit rate 15% among 420,000 | DT40 Tdp1-/- hTDP1 cells, no CPT, ATP luminescence, 48 h | Potency, µM (doses to about 46.2 µM), for the others: at the top dose activity change, negative = growth inhibition, actives largely listed as inhibitors | AID 686978, 2013; note: nearly all actives have a fitted effect of over 55% in size
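No-CPT arm: Tdp1-/-;hTDP1 DT40 cells (400/well) plus compounds, incubated ≥48 hr at 37 °C. Readout CellTiter-Glo luminescence.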
TDP1 block – blocks human tyrosyl-DNA phosphodiesterase 1 | Q9NUW8 | recombinant TDP1, AlphaScreen DNA substrate cleavage | Potency, µM (series often up to 130 µM), inactives show at the top dose activity change, negative = inhibition, hits mostly inhibitors | hit rate 0.28% among 350,000 | AID 485290; note: nearly all actives have a fitted effect of over 40% in size
Target sequence (Q9NUW8 whole entry, looked up): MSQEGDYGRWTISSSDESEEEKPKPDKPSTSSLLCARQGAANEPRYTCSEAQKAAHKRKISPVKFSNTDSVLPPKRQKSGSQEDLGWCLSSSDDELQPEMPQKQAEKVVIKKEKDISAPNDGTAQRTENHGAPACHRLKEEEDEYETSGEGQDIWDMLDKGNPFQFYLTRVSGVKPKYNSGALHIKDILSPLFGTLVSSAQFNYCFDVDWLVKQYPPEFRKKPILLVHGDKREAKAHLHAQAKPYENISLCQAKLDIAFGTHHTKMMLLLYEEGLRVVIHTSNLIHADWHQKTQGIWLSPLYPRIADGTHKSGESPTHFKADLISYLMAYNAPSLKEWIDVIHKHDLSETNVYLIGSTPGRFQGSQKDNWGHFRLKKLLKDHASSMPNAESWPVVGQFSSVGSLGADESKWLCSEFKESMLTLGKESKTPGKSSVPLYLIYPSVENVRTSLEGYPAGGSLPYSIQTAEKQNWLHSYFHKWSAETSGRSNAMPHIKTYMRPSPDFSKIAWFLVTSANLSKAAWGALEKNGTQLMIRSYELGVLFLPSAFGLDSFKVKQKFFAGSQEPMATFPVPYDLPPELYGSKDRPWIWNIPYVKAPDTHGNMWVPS
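E. coli-derived human Tdp1, 1 nM final. Cpd preinc 15 min RT; substrate 15 nM final, 5 min RT; AS bead mix 10 ug/ml final, 10 min RT. Signal loss = tyrosine-FITC cleavage. No-enzyme wells = max signal.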
Starred values were filed as active, the others as inactive; ? = inconclusive; · = not tested or not shown; [ ] = another dose, or the depositor's remark. Calls come from the whole dose curve; as a rule, active = well fitted curve in the direction sought with a large enough effect; inconclusive = small, poorly fitted or top-dose-only effect, or another doubt; inactive = no such curve, though single readings can be large; an effect the other way counts as inactive or inconclusive. % is set by controls: 0 for no effect and ±100 for the full control effect; potency is the fitted concentration of half-maximal effect. This is a subset, and most or all hits are left out here.

Screens in order – DT40 TDP1 no CPT, TDP1 block
CS(=O)(=O)N1CCc2cc(S(=O)(=O)NCCNS(=O)(=O)c3ccc4c(c3)CCN4S(C)(=O)=O)ccc21
  7%, -2%
Cc1ccc(N=C/C(C(=O)C(F)(F)F)=C(\O)c2cccs2)cc1
  -19%, 2%
Cc1ccc(C(=O)NCCCNC(=O)c2cccnc2)cc1
  5%, 5%
Cc1c(Cl)c([N+](=O)[O-])nn1CC(=O)N1CCc2ccccc2C1
  -18%, 2%
CC(=O)c1cccc(NC(=O)c2cc3nc(C)cc(C)n3n2)c1
  ?, 9%
COCCn1c(SCc2nnc(-c3ccc(OC)c(OC)c3)o2)nnc1-c1ccncc1
  ?, 2%
CCOc1[nH]n(-c2ccccc2)c(=O)c1C=NCc1ccncc1
  23%, 0%
CC(C)Oc1ccc(C(=O)Nc2ccc(N(C)C)cc2)cc1
  ?, 5%
O=C(NC(=O)N1CCN(c2cccc(Cl)c2)CC1)c1ccccc1
  0%, 5%
COc1ccc(CCN(Cc2cc3cc(C)ccc3[nH]c2=O)C(C)=O)cc1OC
  6%, 6%
O=C(NCC1CCCN(C(=O)c2cccc(C(F)(F)F)c2)C1)c1ccc(F)cc1 (stereo unspecified)
  9%, 2%
COc1ccc(NC(=O)CSCC(=O)N(C)CC(=O)Nc2ccc(Cl)c(C(F)(F)F)c2)cc1
  ?, 5%
CC(C)N1CCc2c(sc(NC(=O)CN3C(=O)c4ccccc4C3=O)c2C(N)=O)C1
  19%, 6%
O=C1C=C(c2cccs2)CC(c2cccs2)C1n1cnc([N+](=O)[O-])c1 (stereo unspecified)
  ?, -2%
CCOC(=O)C(=O)C1C(=O)Nc2ccccc21 (stereo unspecified)
  5%, -3%
Cc1ccc(-c2nn(-c3ccccc3)cc2C(N)=O)o1
  -12%, 3%
CCOc1ccc(NS(=O)(=O)c2ccc(C(=O)NCC3(N4CCCCC4)CCCCC3)cc2)cc1
  ?, 3%
CCn1ccc(C(=O)NCc2ccc3c(c2)OCO3)n1
  13%, 2%
COc1cc2c(cc1OC)C(C(=O)NCc1ccco1)C(c1cccs1)N(C)C2=O (stereo unspecified)
  -7%, 1%
Fc1ccccc1Cc1ccc(Cl)nn1
  6%, 0%

Complete entries as entered above. Values in the order: DT40 TDP1 no CPT	TDP1 block
Profile of `Cc1ccc(C(=O)NCCCNC(=O)c2cccnc2)cc1` → 5%	5%
Profile of `COc1ccc(CCN(Cc2cc3cc(C)ccc3[nH]c2=O)C(C)=O)cc1OC` → 6%	6%
Profile of `CCOC(=O)C(=O)C1C(=O)Nc2ccccc21` (stereo unspecified) → 5%	-3%
Profile of `O=C1C=C(c2cccs2)CC(c2cccs2)C1n1cnc([N+](=O)[O-])c1` (stereo unspecified) → ?	-2%

Part of the list above, set out differently.
molecule,DT40 TDP1 no CPT,TDP1 block
Cc1ccc(N=C/C(C(=O)C(F)(F)F)=C(\O)c2cccs2)cc1,-19%,2%
Cc1ccc(C(=O)NCCCNC(=O)c2cccnc2)cc1,5%,5%
Cc1c(Cl)c([N+](=O)[O-])nn1CC(=O)N1CCc2ccccc2C1,-18%,2%
CC(=O)c1cccc(NC(=O)c2cc3nc(C)cc(C)n3n2)c1,?,9%

The list continues.
Screens in order – DT40 TDP1 no CPT, TDP1 block
O=C(NC(Cc1ccccc1)C(=O)O)/C(=C/c1ccc(Cl)cc1)NC(=O)c1ccco1 (stereo unspecified)
  0%, -5%
Oc1c(Br)cc(Br)cc1C=NCc1ccccc1
  -14%, 0%
O=C1CCC(C(=O)N2CCCC(N3CCN(c4cccc(C(F)(F)F)c4)CC3)C2)=NN1 (stereo unspecified)
  23%, 1%
COc1ccc(C(=O)Nc2ccc(CN3CCCCC3)cc2)cc1
  7%, 0%
CNc1cc(N2CCCC2)ccc1[N+](=O)[O-]
  18%, -3%
Cc1ccc(CNC(=O)C2CCCN2C(=O)NCc2ccccc2)cc1 (stereo unspecified)
  -7%, 0%
CCOC(=O)C1=C(C)OC(N)=C(C#N)C1c1ccccc1 (stereo unspecified)
  ?, -4%
CCn1c(C)nnc1SCC(=O)Nc1nccs1
  10%, ·
CC1(C)CC(=O)C2=C(C1)N(Cc1ccco1)C(=O)NC2(C(F)(F)F)C(F)(F)F
  -6%, 4%
OCCSc1nc(N2CCOCC2)nc(N2CCOCC2)n1
  ?, -2%
O=C(/C=C/c1ccc(Cl)c(Cl)c1)n1cccn1
  -15%, 1%
CCc1c(C)nc2nc(NC(C)=O)[nH]n2c1=O
  -7%, 2%
CCN(CC)C(=O)c1ccc(Cn2cc([N+](=O)[O-])cn2)o1
  -20%, 5%
COc1ccc(/C(C)=C2\SC(=S)N(CCC(=O)O)C2=O)cc1
  0%, 1%
COc1cccc(N(C(=O)c2ccco2)C(C(=O)NC2CCCC2)c2ccc(N3CCOCC3)cc2)c1 (stereo unspecified)
  -18%, ·
CC(=O)Nc1ccccc1NC(=O)C/C(C)=N/NC(=O)C(=O)Nc1cccc(Cl)c1C
  -21%, 8%
Cc1ccc(NC(=O)N2CCc3ccccc3C2)cc1C
  -9%, 1%[56.1 µM]
O=C1CSC(=Nc2ccccc2[N+](=O)[O-])N1
  ?, -2%
CC(C)(CSc1nncn1N)NS(=O)(=O)c1ccc(Cl)cc1
  ?, -7%
Cc1nnc(SCC(=O)NCc2cccs2)n1-c1ccccc1
  -16%, 3%
O=C(NC(=O)N1CCSCC1)c1c(Cl)cccc1Cl
  -12%, 5%
CSc1ccccc1NC(=O)COC(=O)c1c[nH]c(=O)[nH]c1=O
  19%, 2%
Cc1ccc(OCC(=O)NCCNC(=O)c2ccc(C)nc2)cc1
  ?, 16%
O=C(COC(=O)c1ccc2c(c1)S(=O)(=O)c1ccccc1C2=O)NC1CC1
  -1%, -2%
O=C(COc1ccc([N+](=O)[O-])cc1)Nc1ccc(N2CCCC2)cc1
  ?, 3%
O=C(Cn1cnc2ccccc2c1=O)Nc1ccc(S(=O)(=O)N2CCCC2)cc1
  -10%, 5%
CC(C)C(NS(=O)(=O)c1cccc2nsnc12)C(=O)NC1CCCCC1C (stereo unspecified)
  -3%, 1%
O=C(COC(=O)c1cccs1)Nc1cc(S(=O)(=O)N2CCOCC2)ccc1Cl
  1%, 5%
O=C(Nc1cc([N+](=O)[O-])ccc1N1CCOCC1)c1ccco1
  -12%, 3%
COc1ccccc1N1CCN(S(=O)(=O)c2cc(Br)cnc2N)CC1
  ?, 1%
COc1ccccc1C(=O)NC(=O)CSc1cccc[n+]1[O-]
  3%, 3%
O=C(O)c1ccc2c(c1)C(=O)N(c1nccs1)C2=O
  0%, -3%
Cc1nc(CSc2n[nH]c(=O)n2-c2ccccc2)cs1
  -20%, 3%
c1ccc(N2CCCCC2)c(NC2=NCCC2)c1
  -17%, -3%
COc1ccc(C)cc1NCc1cc(=O)oc2cc(-c3ccccc3)c(O)cc12
  ?, 0%
O=C(Nc1cccc(Cl)c1)c1ccncc1
  -18%, -2%
Cc1ccc(C)c(OCC(=O)N/N=C\c2cccn2C)c1
  -23%, 7%
Cc1ccc(C(=O)COC(=O)CNC(=O)C(c2ccccc2)c2ccccc2)cc1[N+](=O)[O-]
  -23%, 0%
Cc1cccc(OCCC(=O)NCC(=O)Nc2cccc(C)c2C)c1
  -26%, -3%
CCn1cc(/C=C(\NC(=O)c2ccccc2OC)C(=O)NCCCn2ccnc2)c2ccccc21
  -25%, 7%
O=C(c1ccccc1)N1CCCCC(Sc2nnc3ccccn23)C1=O (stereo unspecified)
  -7%, 0%
O=C(O)/C=C/C(=O)NCCc1ccc(Cl)cc1
  7%, 0%
CCOC(=O)c1[nH]nc(N)c1NC(=O)c1ccc(Cl)cc1Cl
  -11%, -2%
COc1ccc(CN2C(=O)CCC2(C)C(=O)NC2CCCCCC2)cc1 (stereo unspecified)
  3%, -4%
N#Cc1ccc(-c2csc(NC3=NCCCCC3)n2)cc1
  ?, 5%
O=C1C2CC=C(Cl)CC2C(=O)N1CCc1ccccc1 (stereo unspecified)
  -3%, 3%
NC(=O)COC(=O)c1cc(=O)[nH]c2ccc(S(=O)(=O)Nc3ccc(F)cc3)cc12
  -3%, 8%
CN(C)/C=N/c1nccc(-c2cccs2)n1
  -4%, -4%
CC(C)N(C)CCOC(=O)c1ccccc1Cl
  1%, 8%
COC(=O)c1ccc(C(=O)NC(=S)Nc2ccc3nc(SC)sc3c2)cc1
  ?, -4%
Cc1cccc(C(=O)Nc2nnc(COc3ccccc3)s2)c1
  ?, 5%
Cc1ccc(NC(=O)C(c2ccccc2)N(C)C)cc1Cl (stereo unspecified)
  -13%, 0%
COC(=O)CCC(=O)Nc1ccc(S(=O)(=O)Nc2cc(OC)nc(OC)n2)cc1
  17%, ·
Cc1nc(C)c(C(=O)Nc2ccc(C)c(F)c2)o1
  -1%, 7%
CSc1ccccc1C(=O)NCC(c1ccco1)N(C)C (stereo unspecified)
  -4%, ·
CC1CC(C)CN(C(=O)c2nn(C)c3c2CS(=O)(=O)c2ccccc2-3)C1 (stereo unspecified)
  24%, 1%
OCCCn1c(-c2ccccc2)n[nH]c1=S
  -3%, ·
O=S(=O)(Cc1ccccc1)N1CCCCCC1
  -11%, 2%
CNC(=O)CSc1nnc(-c2cccnc2)n1-c1ccc(C)cc1
  -28%, -3%
Cc1cc(C)n(C(=O)CN2C(=O)c3ccccc3C2=O)n1
  2%, -1%

3 records picked at random from those above:
Screens in order – DT40 TDP1 no CPT, TDP1 block
O=C(c1ccccc1)N1CCCCC(Sc2nnc3ccccn23)C1=O (stereo unspecified)
  -7%, 0%
OCCCn1c(-c2ccccc2)n[nH]c1=S
  -3%, ·
CC1CC(C)CN(C(=O)c2nn(C)c3c2CS(=O)(=O)c2ccccc2-3)C1 (stereo unspecified)
  24%, 1%

Further results:
Screens in order – DT40 TDP1 no CPT, TDP1 block
CC(=O)c1ccc(N2CCN(C(=O)C(=O)c3c(C)[nH]c4ccccc34)CC2)cc1
  ?, 1%
O=C(O)/C=C/C(=O)NNC(=O)c1cccc(Br)c1
  ?, 5%
COc1ccc(-n2ncc3c(=O)n(CC(=O)NC(C)C)cnc32)cc1
  12%, -12%
Cc1ccc(C2(C)NC(=O)N(CC(=O)Nc3ccccc3C(=O)NC3CCCC3)C2=O)cc1 (stereo unspecified)
  -10%, 0%
COc1ccc(/C=C(\NC(=O)c2ccc(OC)c(OC)c2)C(=O)NCCc2c[nH]c3ccccc23)cc1
  ?, 6%
Cc1nn(C(C)C(=O)NNC(=S)Nc2ccc(Cl)cc2)c(C)c1[N+](=O)[O-] (stereo unspecified)
  -6%, 7%
CCC(Oc1cccc(C)c1)C(=O)Nc1ccccc1C(=O)N1CCOCC1 (stereo unspecified)
  -1%, 3%
COc1ccc(C2=NOC(C(=O)Nc3cc(Br)ccc3O)C2)cc1OC (stereo unspecified)
  -29%, 3%
CC(=O)NC(Cc1c[nH]c2ccccc12)C(=O)O (stereo unspecified)
  -1%, 1%
CCN(CC(=O)NCc1ccc(Cl)cc1)C(=O)c1ccc(S(=O)(=O)N(C)C)cc1
  -17%, 1%
COC(=O)c1cccc(N(CC(=O)NCC2CCCO2)C(=O)CCC(=O)Nc2cc(C)on2)c1 (stereo unspecified)
  -22%, 3%
O=C(Nc1ccc(Cl)cc1)NC1CCCc2ccccc21 (stereo unspecified)
  ?, 3%

Screening data from PubChem.
